# From PubChem
# Rce1 inhib = yeast Rce1p protease inhibitors, primary screen, biochemical, fluorescence, cell-free homogeneous. yeast membranes, quenched prenylated peptide cleavage fluorescence. calls only. 290,000 tested, 0.27% active. AID 2563, 2010;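 active = fall in fluorescence gain of 50% or more versus controls, with final raw signal at or below 3038400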;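 also: plate controls were neutral control wells for no effect and wells lacking membranes for full effect; tested at 10 µM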
# Target sequence (Q03530 whole entry, looked up): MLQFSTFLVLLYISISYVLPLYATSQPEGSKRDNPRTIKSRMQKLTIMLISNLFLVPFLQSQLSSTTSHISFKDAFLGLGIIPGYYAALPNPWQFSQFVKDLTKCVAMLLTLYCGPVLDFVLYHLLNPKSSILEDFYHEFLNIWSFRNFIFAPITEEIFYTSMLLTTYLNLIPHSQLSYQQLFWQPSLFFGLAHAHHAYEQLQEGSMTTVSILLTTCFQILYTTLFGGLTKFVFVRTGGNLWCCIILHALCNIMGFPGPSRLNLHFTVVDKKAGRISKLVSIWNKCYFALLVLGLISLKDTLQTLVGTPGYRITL
# Env fusion inh = inhibitors of HIV-1 Env-driven cell-cell fusion, primary screen, HeLa-JRFL effector, CEM21 target cells, luciferase; inhibition, % at 12.3 µM; AID 651610, 2012; 360,000 tested, 1.1% active;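 active = mean replicate inhibition score of at least 50 and every replicate individually at or above 50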;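 also: 0% = plate neutral controls and 100% = maraviroc near 300 nM; one replicate is shown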
# PABP polyA inh = PABP poly(A) RNA binding inhibitors, primary screen, biochemical, fluorescence polarization, uHTS; Polyadenylate-binding protein 1 (Homo sapiens), P11940; inhibition, % at 35 µM; 290,000 tested, 1% active;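 active = 50% or more with normal probe brightness, or confirmed in later tests; about a fifth of its hits are not listed in these tables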;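 also: calls also rest on retests at 20 µM and on dose response follow-up; controls were probe without protein and protein plus probe with vehicle; some compounds called inactive have numbers as strong as hits; many hits fall short of the cut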
# Target sequence (P11940 whole entry, looked up): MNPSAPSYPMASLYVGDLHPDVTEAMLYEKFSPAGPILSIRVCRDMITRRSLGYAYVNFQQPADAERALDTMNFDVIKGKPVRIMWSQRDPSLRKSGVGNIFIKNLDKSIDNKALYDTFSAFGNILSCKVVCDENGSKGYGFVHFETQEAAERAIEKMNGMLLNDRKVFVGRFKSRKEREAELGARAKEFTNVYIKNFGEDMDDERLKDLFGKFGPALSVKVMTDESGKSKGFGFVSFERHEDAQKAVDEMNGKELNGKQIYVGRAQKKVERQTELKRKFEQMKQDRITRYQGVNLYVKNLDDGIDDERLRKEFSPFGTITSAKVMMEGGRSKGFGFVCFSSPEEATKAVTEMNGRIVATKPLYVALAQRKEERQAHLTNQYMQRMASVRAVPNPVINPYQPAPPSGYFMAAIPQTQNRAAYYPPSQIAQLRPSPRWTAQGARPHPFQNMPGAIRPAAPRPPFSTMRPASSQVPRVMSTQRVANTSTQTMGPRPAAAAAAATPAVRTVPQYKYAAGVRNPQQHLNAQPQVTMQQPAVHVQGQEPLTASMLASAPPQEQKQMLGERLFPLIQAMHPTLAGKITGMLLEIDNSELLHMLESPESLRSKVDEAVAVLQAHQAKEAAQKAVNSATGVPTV
# Yeast UUG start = modulators of yeast start codon fidelity, primary screen, whole organism, S. cerevisiae, single point, plate reader; S. cerevisiae UUG-firefly luciferase reporter, luminescence/redox ratio; activity score, % at 18.7 µM; 350,000 tested, 0.13% active;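 active = replicate mean at a twofold rise or more, about +100% in these data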;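 also: firefly luciferase made from a UUG start codon reports start codon fidelity; reporter light over untreated wells divided by growth signal over untreated wells; some hits fall short of that in this replicate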
# CSC inhib = cancer stem cell viability inhibitors, primary screen, luminescence; cancer stem cell-like cells viability; inhibition, % at 7.5 µM; 300,000 tested, 1.1% active; AID 2717, 2010;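 active = mean at 75% or more and at least half the replicates too; tested in HMLE shEcad cells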;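 also: 0% = median of negative and 100% = median of positive control wells; the first replicate is given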
# MT1-MMP act inh = blockers of MT1-MMP proenzyme processing, primary screen, HT1080 RFP-PRO-GFP cells, GFP/RFP fluorescence. Matrix metalloproteinase-14 (Homo sapiens), P50281. GFP/RFP ratio fluorescence, overnight; percent of plate control window, DMSO zero. GFP/RFP ratio change, % at 20 µM. 360,000 tested, 0.061% active. AID 651647, 2012;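 active = GFP/RFP ratio change of at least 30% with cell ATP level not reduced by more than half and red fluorescence within 50% of control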; also: strong numbers were not always called active
#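 Assay system: RFP-PRO-GFP reporter HT1080 cells; read-out basis: GFP/RFP fluorescence ratio; benchmarks: DMSO wells and RFP-L50D-GFP cells; doses: 20 µM single dose, 1% DMSO; schedule: overnight cell settling, then overnight compound exposure, 37 °C, 5% CO2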
# eIF4H FP inh = human eIF4H binding inhibitors, primary screen, translation initiation inhibitor project, biochemical, uHTS, fluorescence polarization | Eukaryotic translation initiation factor 4H (Homo sapiens), Q15056 | eIF4H fluorescence polarization binding assay | 290,000 tested, 0.94% active | inhibition, % at 35 µM;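 active = 50% or more with normal probe brightness, or confirmed in later tests; about a fifth of its hits are not listed in these tables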;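 also: calls also rest on retests at 20 µM and on dose response follow-up; 0% = protein and probe with vehicle and 100% = probe without protein; strong numbers were not always called active; many hits fall short of the cut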
# MT1-MMP act inh RFP = recorded beside MT1-MMP act inh, whose call it bears; RFP signal change, %; measured here: RFP expression control read;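 0 = vehicle wells; hits needed this value within 50% of zero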
# Numbers without * were called inactive; i = inactive; x = not tested or not shown; & = joins results of further samples; [ ] = another dose, or the depositor's remark. An unsorted share of the library, and some 2.9% of all compounds hit somewhere here.
SMILES	Rce1 inhib	Env fusion inh	PABP polyA inh	Yeast UUG start	CSC inhib	MT1-MMP act inh	MT1-MMP act inh RFP	eIF4H FP inh
CCCS(=O)(=O)N1CCN(C(=O)c2ccco2)CC1	x	-24.5	-13.8	-14.9	-17.9	-0.5	-0.1	-3.8
Cc1nc2sc(C(c3cccs3)N3CC(C)CC(C)C3)c(O)n2n1 (stereo unspecified)	i	-50.8	0.4	-3.3	-0.5	2.0	1.4	-3.8
Cc1noc(C)c1S(=O)(=O)Nc1ccc2c(c1)C(=O)N([C@H](C)CO)C[C@H](C)[C@H](CN(C)S(=O)(=O)c1ccc(Cl)cc1)OCCCC[C@@H](C)O2	x	-26.2[16.7 µM]	x	-18.4&-7.0	x	-14.6	-18.2	x
CC(=O)C1=C(O)C(=O)N(CCC(=O)O)C1c1ccc(Cl)cc1Cl (stereo unspecified)	i	x	4.3	-12.9	-21.0	8.6	-4.7	4.8
O=C(CSc1nc(-c2ccccc2)cs1)NC(=O)NCc1ccco1	i	x	14.3	-3.4	7.3	-2.7	-4.8	0.9
C/C=C/c1ccc(Oc2nnnn2-c2ccc(C(N)=O)cc2)c(OC)c1	i	x	-5.4	5.0	-10.1	1.6	-4.4	5.4
OCCC1CN(Cc2cccc(O)c2)CCN1CCc1ccccc1 (stereo unspecified)	i	-1.4	9.5	x	-3.8	-1.0	0.5	-4.6
O=C(O)/C=C\C(=O)Nc1ccc(OC(F)F)cc1	i	9.8	2.2	x	-10.3	1.4	6.5	-2.3
CCn1cc(C(=O)Nc2cccc(NC(C)=O)c2)c2cc(OC)c(OC)cc2c1=O	i	-108.8	13.1	3.4	-11.0	1.5	-2.0	1.3
CC1CCCCN1CCNC(=O)CN1C(=O)CSc2ccc(S(=O)(=O)N3CCCCC3)cc21 (stereo unspecified)	i	1.3	8.1	-10.4	-7.5	-3.5	1.3	-13.7
O=S(=O)(Cc1ccccc1)NCC1CCCN(Cc2cccc3nonc23)C1 (stereo unspecified)	i	14.2	-7.2	x	2.5	-2.3	-0.6	-5.0
COc1ccc(Cl)cc1NC(=O)CCS(=O)(=O)c1ccc(C)cc1	i	6.4	0.1	-19.1	-10.5	7.6	3.8	2.2
CC(Oc1ccc(Cl)cc1C(N)=O)C(=O)N1CCc2ccccc21 (stereo unspecified)	x	13.8	x	-8.3	-1.7	-2.1	-2.4	x
CC(C)CC(c1nnnn1C1CCCCC1)N1CCN(C(=O)c2ccco2)CC1 (stereo unspecified)	i	4.8	12.5	-12.1	x	-0.8	-2.2	-2.6
C[C@H](CO)N1C[C@H](C)[C@@H](CN(C)S(=O)(=O)c2cccs2)Oc2ccc(NC(=O)CCC(F)(F)F)cc2C1=O	x	-12.1	x	-2.7&19.1	0.5	0.8	-1.1	x
NC(=O)c1ccccc1OCC(=O)N1CCCc2ccccc21	i	-27.4	2.0	5.9	-9.1	3.2	-3.5	1.5
Fc1ccccc1/C=N/n1c(C2CCCCC2)n[nH]c1=S	i	5.2	0.5	-12.8	-2.3	0.3	-0.5	-8.3
CC(=O)c1ccc(NC(=O)C2CC(c3ccc(F)cc3)=NO2)cc1 (stereo unspecified)	i	-5.0	-6.0	3.1	-12.6	1.7	6.6	-0.3
CC[C@H](C)C(C(=O)N1CCN(C(=O)OC(C)(C)C)CC1)n1cc(C(Cc2ccc(O)cc2)NC(=O)OC(C)(C)C)nn1 (stereo partly specified)	i	-25.9	-12.6	30.6	-9.1	-0.4	-5.7	0.0
CC(C)c1ccc(OCC(=O)Nc2ccncc2)cc1	x	-3.2	0.3	0.0	11.4	3.7	1.6	6.5
CCOC(=O)CSc1nnc(CSc2nc3sc4c(c3c(=O)[nH]2)CCCC4)n1-c1ccccc1	i	-10.9	-5.2	-0.5	11.0	1.9	1.2	-7.2
COc1cccc(CN2CCC(Oc3ccc(C(=O)NCc4ccccn4)cc3)CC2)c1O	i	-13.7	-8.0	-21.8	x	-6.1	0.7	-5.7
c1ccc2oc(-c3ccn[nH]3)cc2c1	i	-45.2	0.7	-12.9	-11.7	-1.5	-3.3	-2.2
CSc1cccc(NC(=S)N2CCCN(Cc3cccc(Cl)c3)C2)c1	i	21.8	9.5	-6.3	2.3	0.5	-7.0	1.8
NC(=O)C1CCN(c2nc3ccccc3nc2NS(=O)(=O)c2ccc(Br)cc2)CC1	x	-5.3	x	-9.0	-15.9	-4.8	3.2	x

# Given with values under each structure: 3 of the compounds above.
# Every second line gives: Rce1 inhib	Env fusion inh	PABP polyA inh	Yeast UUG start	CSC inhib	MT1-MMP act inh	MT1-MMP act inh RFP	eIF4H FP inh
CC(=O)c1ccc(NC(=O)C2CC(c3ccc(F)cc3)=NO2)cc1 (stereo unspecified)
  i	-5.0	-6.0	3.1	-12.6	1.7	6.6	-0.3
CC[C@H](C)C(C(=O)N1CCN(C(=O)OC(C)(C)C)CC1)n1cc(C(Cc2ccc(O)cc2)NC(=O)OC(C)(C)C)nn1 (stereo partly specified)
  i	-25.9	-12.6	30.6	-9.1	-0.4	-5.7	0.0
CC(C)c1ccc(OCC(=O)Nc2ccncc2)cc1
  x	-3.2	0.3	0.0	11.4	3.7	1.6	6.5

# Additional structures follow.
SMILES	Rce1 inhib	Env fusion inh	PABP polyA inh	Yeast UUG start	CSC inhib	MT1-MMP act inh	MT1-MMP act inh RFP	eIF4H FP inh
O=C(O)c1cc(NCc2ccc3c(c2)OCO3)ccc1N1CCOCC1	i	-153.7	15.0	-4.9	-6.6	-0.3	2.0	-3.5
COc1ccc(NC(=O)C2(C)CCCN(C(C)C)C2)cc1F (stereo unspecified)	x	0.5	x	-10.2	x	-2.4	-1.0	x
O=C(COc1ccc2c(c1)OCO2)Nc1nnc(Cc2ccccc2)s1	i	-40.3	-6.6	x	x	4.1	3.0	-7.3
COc1ccccc1Cn1c(=S)[nH]c2cc(C(=O)N3CCCC(C)C3)ccc2c1=O (stereo unspecified)	x	-2.0	x	-18.8	x	-0.6	-10.5	x
Oc1ccc(Cl)cc1C=NCCc1ccccc1	i	-2.8	-4.1	45.8	-2.1	3.9	3.7	1.5
COc1ccc(CCNC(=O)CSc2nc3cc(Cl)ccc3o2)cc1OC	i	x	9.0	4.5	7.8	-1.2	-7.6	-2.9
CSCCC(NC(=O)c1ccco1)C(=O)N(C)CC(=O)Nc1ccccc1Br (stereo unspecified)	x	-1.7	x	-10.1	x	0.1	-1.5	x
O=C(CN(C(=O)C1CSC(=O)C1)c1cccc(F)c1)NCc1ccc2c(c1)OCO2 (stereo unspecified)	i	10.8	18.7	-5.9	-2.7	-1.0	-1.6	9.4
Oc1ccc(C[C@H]2CNC(=S)N2CC2CCCN2C[C@H](Cc2ccc(O)cc2)N2C[C@H](Cc3ccc(O)cc3)N(CC3CCCCCC3)C2=S)cc1 (stereo partly specified)	x	43.6	x	-22.9	x	-5.5	-17.9	x
COc1ccc(Oc2cn[nH]c2-c2ccc(O)cc2O)cc1	i	x	2.0	-15.2	-5.4	-1.7	-8.3	0.2
COc1cccc(OC)c1C(=O)OCC(=O)Nc1cccnc1Cl	i	15.9	-1.7	x	4.1	0.8	4.5	8.5
COc1ccc(Cl)cc1C(=O)OCC(=O)NCCNC(=O)COC(=O)c1cc(Cl)ccc1OC	i	20.9	5.3	-7.6	0.9	-2.2	0.0	17.8
Cc1ccc(/C=C/C(=O)N2CCCC(C(N)=O)C2)o1 (stereo unspecified)	x	-13.1	-3.6	x	-10.7	4.1	-0.3	-5.9
NC(=O)c1ccc(NC(=O)COC(=O)c2c3c(nc4ccccc24)/C(=C\c2cccs2)CCC3)cc1	i	-2.9	3.3	x	115.2*	3.5	-2.2	2.6
COc1ccc(C(=O)ON=C2c3ccccc3-c3ccccc32)cc1OC	i	-28.3	1.4	x	-6.7	-4.1	-2.3	6.6
COC(=O)C1N[C@@H]([C@@H](NC(=O)COc2ccccc2)C(=O)Nc2ccc(OC)cc2)SC1(C)C (stereo partly specified)	i	-2.8	x	12.5	-5.0	-0.8	-3.6	x
COc1ccc2c(c1)C(=O)N1[C@H]3c4cc(Br)ccc4OC[C@@H]3[C@H](c3ccccc3)[C@]1(C)C(=O)N2	x	x	x	-5.8	-13.0	-19.7	-13.8	x
O=C(c1cc([N+](=O)[O-])cc([N+](=O)[O-])c1)N1CCOCC1	i	10.4	5.1	x	-6.0	-0.6	1.1	-10.3
Cc1ccc(C(=O)Nc2ccccc2C(=O)NC(Cc2c[nH]c3ccccc23)C(=O)O)cc1 (stereo unspecified)	i	-6.4	17.0	x	14.1	6.8	5.0	-4.7
CCOc1ccc(/C=C2\SC(=O)N(c3ccc(O)cc3)C2=O)cc1OC	i	x	-13.4	x	10.6	x	x	-1.0
CCn1c(CC(=O)Nc2ccc(C)cc2)n[nH]c1=S	i	10.8	-0.4	x	x	-1.6	1.0	2.3
CCOC(=O)N/N=C\c1sccc1C	i	-10.4	-0.6	-13.3	-2.8	2.9	6.2	3.5
N#Cc1cc2c(cc1NC(=O)CCn1cnnn1)OCO2	i	13.1	x	-7.7	15.8	-1.5	-0.3	x
COc1cc(C(=S)N2CCCC2)cc(OC)c1OS(=O)(=O)c1ccc(NC(C)=O)cc1	i	x	-8.5	-12.1	-8.7	4.8	3.7	4.9
OC1CCN(CC(O)C(F)(F)F)CC1 (stereo unspecified)	i	13.8	5.8	x	-3.5	1.6	4.0	4.4
O=C(O)CS/C(=C\c1ccc(F)cc1)c1nc2ccccc2s1	i	x	5.2	x	-5.6	x	x	-1.5
C#CCN1C(=O)C(O)(CC(=O)/C=C/c2ccco2)c2ccccc21 (stereo unspecified)	i	13.5	14.4	x	3.5	-6.4	9.9	27.3
COc1cc([N+](=O)[O-])c2nccnc2c1	x	4.2	2.5	x	-12.5	1.7	5.5	-14.4
O=C(CC(=O)N1CCN(c2ccccn2)CC1)Nc1ccc2nc3n(c(=O)c2c1)CCCCC3	i	-3.3	-6.1	-11.2	-11.4	-1.5	-1.1	-4.7
Cn1c(Cc2ccc3c(c2)OCO3)nnc1SCC(=O)NC(C)(C)C	i	-7.7	-5.1	x	-19.1	3.4	2.3	-6.7
COc1ccc(CCNC(=O)C2CCN(Cc3nc(-c4cccc(Cl)c4)oc3C)CC2)cc1OC	i	x	-10.2	-5.6	0.6	0.6	-8.6	-8.1
COc1ccc(NC(=S)NCC(c2cccnc2)N2CCOCC2)cc1 (stereo unspecified)	i	-1.6	10.3	x	-7.7	-5.4	0.2	-6.2
COC(=O)CNC(=O)C1CCN(c2nc(C)cc(C)n2)CC1	i	-15.1	-4.5	-20.4	-6.4	1.3	2.6	-6.0
CCOc1ccc(C2CC(c3cccc(OC)c3)Nc3ncnn32)cc1 (stereo unspecified)	i	3.7	5.6	-16.2	-12.4	1.2	-1.9	0.6
COc1ccc(N2CC(C(=O)Nc3nnc(SCc4cccnc4)s3)CC2=O)cc1 (stereo unspecified)	i	-17.2	-7.4	-15.3	-3.4	0.7	2.4	-10.3
c1ccc(Nc2nc(NCc3ccco3)c3ccccc3n2)cc1	i	26.1	-15.9	-25.2	31.9	-0.3	-23.6	-4.5
NNC(=O)CC1NCCN(Cc2ccccc2)C1=O (stereo unspecified)	i	12.4	3.1	-13.9	-17.0	-1.0	1.6	1.4
